PrP 5UTR inh = suppresses PrP 5' UTR mRNA reporter expression. cell-based PrP 5' UTR mRNA reporter, plate reader. inhibition, % (no concentration beside the values). 340,000 tested, 0.35% active. AID 488862;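 active means every replicate at 50% or more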;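 further: 0 = median of the neutral control wells; tested in H4 reporter cells; numbers are from one replicate; inactives centre near -14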
BJeLR lethal = kills HRASV12-expressing BJeLR cells; BJeLR (HRASV12) viability, CellTiter-Glo ATP luminescence, 48 h; reference of the scale not given here; inhibition, % (concentration not given with the values); 300,000 tested, 0.17% active; AID 1554;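 active means replicate mean above 50%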;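 further: 50 nL library stock added to about 25 µL; numbers are from one replicate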
Autofluor counter = compound fluorescence in toxin protease inhibitor counterscreen; compound autofluorescence counterscreen, microsphere flow cytometry; active compounds read high; fluorescence intensity (no concentration beside the values); 360,000 tested, 3.1% active; AID 624483;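 active means at least 3 SD above the mean of all compounds, about 16000 in these data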;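 further: 100 nL of 1 mM stock went into each well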
ugtP null kill = growth inhibition of S. aureus ugtP deletion strain; 330,000 tested, 0.54% active; AID 1259309; S. aureus RN4220 ugtP deletion, OD600 growth, 16 h; some inactives read as strong as hits; growth inhibition, % (concentration not given with the values);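 active means z-score under -3 and OD600 up to 0.15 on both plates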;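 further: plate controls were untreated wells for no effect and antibiotic for full effect; wells of about 80 µL received 100 nL stock; the first replicate is given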
Mtb hypoxia rep = Mtb hypoxia fluorescent reporter inhibition; M. tuberculosis hypoxia-regulated fluorescent reporter, fluorescence; fluorescence inhibition, % (no concentration beside the values); 300,000 tested, 0.1% active;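 active means 35 to 45% if threefold the growth effect, above 45% if 1.5-fold the growth effect; inactive means the rest, general growth blockers included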;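 further: wells of about 50 µL received 100 nL stock; 0% = vehicle wells and 100% = reference inhibitor wells; whole bacteria with a GFP reporter of the hypoxia response; strong numbers were not always called active; many hits fall short of the cut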
RN4220 kill = kills Staphylococcus aureus RN4220. S. aureus RN4220 growth, OD600, 16 h. inhibition, % (concentration not given with the values). 330,000 tested, 0.33% active. AID 1259311;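 active means z-score of -3 or lower and OD600 up to 0.18 on both plates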;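 further: plate controls were untreated cells for no effect and reference antibiotic for full effect; stock transfer was 100 nL into about 80 µL; one replicate is shown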
Mtb hypoxia rep growth = also measured in Mtb hypoxia rep; calls as there; growth inhibition, %; measured here: M. tuberculosis growth (absorbance);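 0% = vehicle and 100% = reference antibiotic; read after six days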
* = called active by the depositor; & = joins results of further samples.

How did Cc1ccc(CN2CCCC(CO)(Cc3ccccc3C)C2)s1 (configuration not stated) do in these assays?
PrP 5UTR inh: 1; BJeLR lethal: -1; Autofluor counter: 4534; ugtP null kill: 6; Mtb hypoxia rep: 1; RN4220 kill: 1.9; Mtb hypoxia rep growth: 18

Results for CCn1c(CNC(=O)c2ccco2)nnc1SCC(=O)Nc1cc(C)c(C)cc1Br ?
PrP 5UTR inh: -1; BJeLR lethal: 7; Autofluor counter: 22252*; ugtP null kill: -6; Mtb hypoxia rep: 5; RN4220 kill: -2.7; Mtb hypoxia rep growth: 16

Results for CN(CC(=O)Nc1cccc(F)c1)C(=O)c1cc(=O)[nH]c2ccccc12 ?
PrP 5UTR inh: -1; Autofluor counter: 3013; ugtP null kill: 9; Mtb hypoxia rep: -2; RN4220 kill: 7.6; Mtb hypoxia rep growth: -7

Results for COc1ccc(OC)c(NC(=O)CSc2nnc(CCCO)n2-c2ccccc2)c1 ?
PrP 5UTR inh: -5; BJeLR lethal: -4; Autofluor counter: 8111; ugtP null kill: 15; Mtb hypoxia rep: 2; RN4220 kill: 5.2; Mtb hypoxia rep growth: -2

How did CCOC(=O)/C(=C\c1ccccc1)NC(=O)c1ccccc1 do in these assays?
PrP 5UTR inh: -1; BJeLR lethal: 1; Autofluor counter: 3358; ugtP null kill: 4; Mtb hypoxia rep: -1; RN4220 kill: 3.6; Mtb hypoxia rep growth: -1

What do the screens show for `CC(=NNC(=O)C1CCCN1C(=O)c1ccc([N+](=O)[O-])cc1)c1ccc(Br)cc1` (configuration not stated)?
ugtP null kill: 5; Mtb hypoxia rep: 2; RN4220 kill: 2.4; Mtb hypoxia rep growth: 6

How did Nn1cnc2c([nH]c3ccccc32)c1=O do in these assays?
PrP 5UTR inh: -26; BJeLR lethal: -3; Autofluor counter: 2654; ugtP null kill: 0; Mtb hypoxia rep: 8; RN4220 kill: 3.9; Mtb hypoxia rep growth: 8

Results for O=[N+]([O-])c1ccc(Nc2nccc(Cl)n2)cc1 ?
BJeLR lethal: -5; Autofluor counter: 5574; ugtP null kill: -9; Mtb hypoxia rep: 12; RN4220 kill: 2.2; Mtb hypoxia rep growth: 6

How did CCOc1ccc(OC(=O)NC(c2ccccc2)C(Cl)(Cl)Cl)cc1 (configuration not stated) do in these assays?
PrP 5UTR inh: -22; BJeLR lethal: 4; Autofluor counter: 8980; ugtP null kill: -1; Mtb hypoxia rep: 10; RN4220 kill: 5.5; Mtb hypoxia rep growth: 6

How did CCN(CC)CCCOC(=O)C(OC)(c1ccccc1)c1ccccc1 do in these assays?
PrP 5UTR inh: -16; BJeLR lethal: 6; Autofluor counter: 8563; ugtP null kill: 3; Mtb hypoxia rep: 5; RN4220 kill: 2.4; Mtb hypoxia rep growth: 17

What do the screens show for `CC(=O)N1CCN(c2ccc(S(=O)(=O)N3CCCCC3)cn2)CC1`?
PrP 5UTR inh: 16; BJeLR lethal: -3; Autofluor counter: 18018*; ugtP null kill: 1; Mtb hypoxia rep: 7; RN4220 kill: 0.9; Mtb hypoxia rep growth: 0

What do the screens show for `O=C(NNS(=O)(=O)c1ccc(C(F)(F)F)cc1)c1cnn(-c2ccccc2)c1C(F)(F)F`?
PrP 5UTR inh: -16; BJeLR lethal: -4; Autofluor counter: 5307; ugtP null kill: 0; Mtb hypoxia rep: 2; RN4220 kill: 4.9; Mtb hypoxia rep growth: -2

Results for CCCCCCCCCCCCN1CC(=CC(=O)OCC)c2ccccc2S1(=O)=O ?
ugtP null kill: 22; Mtb hypoxia rep: 1; RN4220 kill: -3.5; Mtb hypoxia rep growth: 4

Results for Cc1ccc(S(=O)(=O)N2CCC(C(=O)NN=Cc3cccnc3)CC2)cc1 ?
ugtP null kill: 2; Mtb hypoxia rep: -2; RN4220 kill: 1.8; Mtb hypoxia rep growth: -3

What do the screens show for `Cc1nn(C)c(C)c1NC(=O)CSc1nc(-c2ccccc2Cl)nc2c1cnn2-c1ccccc1`?
PrP 5UTR inh: -17; BJeLR lethal: -12; Autofluor counter: 2767; ugtP null kill: -7; RN4220 kill: -1.0

How did Cc1ccc(C)c(S(=O)(=O)Nc2ccc(C(=O)N3CCC3)cc2)c1 do in these assays?
PrP 5UTR inh: 8; BJeLR lethal: -5; Autofluor counter: 5432; ugtP null kill: 0; Mtb hypoxia rep: 7; RN4220 kill: 2.9; Mtb hypoxia rep growth: -1

Results for CC(C)NC(=O)N(C)CC1Oc2c(NS(=O)(=O)c3ccccc3)cccc2C(=O)N(C(C)CO)CC1C (configuration not stated) ?
ugtP null kill: -9&4; Mtb hypoxia rep: 10&4; RN4220 kill: 2.9&3.5; Mtb hypoxia rep growth: 8&0

What do the screens show for `CCC(=NCc1ccco1)c1c(O)n(-c2ccc(Cl)cc2)c(=O)[nH]c1=O`?
PrP 5UTR inh: -3; BJeLR lethal: -6; Autofluor counter: 3364; ugtP null kill: 7; Mtb hypoxia rep: 5; RN4220 kill: 7.7; Mtb hypoxia rep growth: -5

How did O=C1[C@@H]2Cc3c([nH]c4ccccc34)CN2C(=O)CN1CCCCCO do in these assays?
PrP 5UTR inh: -2; BJeLR lethal: 1; Autofluor counter: 3138; ugtP null kill: -2; Mtb hypoxia rep: 7; RN4220 kill: 0.9; Mtb hypoxia rep growth: 4

Results for CC(=O)O[C@H]1C(=O)[C@@]2(C)C([C@H](OC(=O)c3ccccc3)[C@]3(O)C[C@H](OC(=O)[C@H](O)[C@@H](NC(=O)Cc4ccccc4)c4ccccc4)C(C)=C1C3(C)C)[C@]1(OC(C)=O)CO[C@@H]1C[C@@H]2O (some centres not stated) ?
PrP 5UTR inh: 23; BJeLR lethal: 32; Autofluor counter: 5053; ugtP null kill: 14; RN4220 kill: 2.8

Results for Cc1c(C(=O)N2CCCCC2)sc(NC(=O)c2ccco2)c1C#N ?
PrP 5UTR inh: 10; BJeLR lethal: -3; Autofluor counter: 3160; ugtP null kill: -3; Mtb hypoxia rep: -2; RN4220 kill: 1.0; Mtb hypoxia rep growth: 8

What do the screens show for `COc1ccccc1CNC(=O)N1CCN(S(=O)(=O)c2ccc(C)cc2)CC1`?
PrP 5UTR inh: -10; BJeLR lethal: 0; Autofluor counter: 4315; ugtP null kill: 8; Mtb hypoxia rep: -4; RN4220 kill: 6.5; Mtb hypoxia rep growth: -10

How did CCOCCCNC(=O)C(c1ccc(Cl)cc1)N(Cc1ccc2c(c1)OCO2)C(=O)CNC(C)=O (configuration not stated) do in these assays?
PrP 5UTR inh: -20; BJeLR lethal: -5; Autofluor counter: 3178; ugtP null kill: 7; Mtb hypoxia rep: 9; RN4220 kill: 11; Mtb hypoxia rep growth: -3

Results for CCOC(=O)c1cc(C)sc1NC(=O)CSc1nccn1C ?
PrP 5UTR inh: -17; BJeLR lethal: -3; Autofluor counter: 6088; ugtP null kill: 1; Mtb hypoxia rep: 11; RN4220 kill: 0.1; Mtb hypoxia rep growth: -8

What do the screens show for `COc1cc2c(cc1OC)C(c1ccccc1C)CC(=O)N2` (configuration not stated)?
PrP 5UTR inh: -17; BJeLR lethal: -5; Autofluor counter: 3237; ugtP null kill: 8; Mtb hypoxia rep: 5; RN4220 kill: 1.4; Mtb hypoxia rep growth: -6

What do the screens show for `Cc1ccc(NC(=O)CSc2ncccn2)cc1S(=O)(=O)N1CCCCC1`?
PrP 5UTR inh: -6; BJeLR lethal: 9; Autofluor counter: 4685; ugtP null kill: 2; Mtb hypoxia rep: -1; RN4220 kill: 3.3; Mtb hypoxia rep growth: -8

What do the screens show for `O=C(Nc1cccnc1Cl)c1ccc(Cl)cc1`?
PrP 5UTR inh: -33; BJeLR lethal: 0; ugtP null kill: 15; Mtb hypoxia rep: 2; RN4220 kill: 4.9; Mtb hypoxia rep growth: -1

How did CCC(=O)N1CCc2cc(S(=O)(=O)N3CCc4ccccc43)ccc21 do in these assays?
PrP 5UTR inh: 6; BJeLR lethal: 8; Autofluor counter: 4470

How did O=C(COC(=O)c1ccccc1SCC(=O)N1CCCC1)Nc1ccccc1OC(F)F do in these assays?
PrP 5UTR inh: -6; BJeLR lethal: 2; Autofluor counter: 6281; ugtP null kill: 6; Mtb hypoxia rep: 5; RN4220 kill: 4.2; Mtb hypoxia rep growth: 6

Results for COc1cc(/C=C/C(=O)NNc2c(F)c(F)cc(F)c2F)ccc1OC(F)F ?
PrP 5UTR inh: -21; BJeLR lethal: -4; Autofluor counter: 2877

Results for CCCCn1c(N)c(N(CCC(C)C)C(=O)c2cc(S(=O)(=O)N3CCOCC3)ccc2F)c(=O)[nH]c1=O ?
PrP 5UTR inh: -25; BJeLR lethal: 3; Autofluor counter: 3737; ugtP null kill: 3; Mtb hypoxia rep: 2; RN4220 kill: -0.9; Mtb hypoxia rep growth: 0

What do the screens show for `CC1=CN2C(=NC(=O)CC2(C)C(=O)N(CC(=O)NC2CCCC2)c2ccccc2C)C=C1` (configuration not stated)?
PrP 5UTR inh: -17; BJeLR lethal: -1; Autofluor counter: 7748; ugtP null kill: 7; Mtb hypoxia rep: 9; RN4220 kill: 4.3; Mtb hypoxia rep growth: 13

Results for O=C(Cc1ccccc1)N[C@@H]1c2ccccc2CC[C@@H]1OCc1ccccc1 ?
PrP 5UTR inh: -24; Autofluor counter: 4107; ugtP null kill: 13; Mtb hypoxia rep: 4; RN4220 kill: 1.6; Mtb hypoxia rep growth: 5

What do the screens show for `COc1ccc(CC(=O)Nc2cccc(-c3nnc(-c4cccc(C)c4)o3)c2)cc1OC`?
PrP 5UTR inh: -36; BJeLR lethal: 22; Autofluor counter: 3222; ugtP null kill: -21; Mtb hypoxia rep: -1; RN4220 kill: -6.7; Mtb hypoxia rep growth: 8

What do the screens show for `O=C(O)C1CCN(C(=O)Cc2ccccc2)CC1`?
PrP 5UTR inh: -32; BJeLR lethal: -2; Autofluor counter: 2957; ugtP null kill: 3; Mtb hypoxia rep: 5; RN4220 kill: 6.2; Mtb hypoxia rep growth: 0

How did CN(C)S(=O)(=O)c1ccc(C(=O)N2CCC(c3nc4ccccc4o3)CC2)cc1 do in these assays?
PrP 5UTR inh: -7; BJeLR lethal: 5; Autofluor counter: 4077; ugtP null kill: 3; Mtb hypoxia rep: 13; RN4220 kill: 1.7; Mtb hypoxia rep growth: 18

Results for C/C(=N\NC(=O)CCC(=O)Nc1ccccc1)c1cccs1 ?
PrP 5UTR inh: -13; BJeLR lethal: 0; Autofluor counter: 2499

How did CCCCOc1ccc(N2CC(C(=O)NCc3ccco3)CC2=O)cc1 (configuration not stated) do in these assays?
PrP 5UTR inh: -15; BJeLR lethal: -5; Autofluor counter: 3936; ugtP null kill: 1; Mtb hypoxia rep: 7; RN4220 kill: 2.7; Mtb hypoxia rep growth: 8

What do the screens show for `O=c1cc2c(nn1Cc1ccc(F)cc1)-c1ccccc1CC2`?
PrP 5UTR inh: -18; BJeLR lethal: -2; Autofluor counter: 3431; ugtP null kill: -12; Mtb hypoxia rep: 2; RN4220 kill: -1.9; Mtb hypoxia rep growth: 12

Results for Cc1ccc(CN2CCNC(=O)C2CC(=O)N(C)C2CCOCC2)cc1 (configuration not stated) ?
PrP 5UTR inh: 2; BJeLR lethal: 4; Autofluor counter: 5390; ugtP null kill: -3; Mtb hypoxia rep: -13; RN4220 kill: -1.3; Mtb hypoxia rep growth: 0

Results for COc1ccc(C(=O)NCC(=O)NN=C/C=C/c2ccccc2)cc1OC ?
ugtP null kill: -4; Mtb hypoxia rep: 5; RN4220 kill: 1.5; Mtb hypoxia rep growth: 1

What do the screens show for `CC(NC(=O)c1ccccc1Br)c1ccc2c(c1)CCCC2` (configuration not stated)?
BJeLR lethal: -1; Autofluor counter: 12383; ugtP null kill: -1; Mtb hypoxia rep: 8; RN4220 kill: 16; Mtb hypoxia rep growth: 3

Filtered by structure: the compounds so far containing bromine.
Results for CCn1c(CNC(=O)c2ccco2)nnc1SCC(=O)Nc1cc(C)c(C)cc1Br ?
PrP 5UTR inh: -1; BJeLR lethal: 7; Autofluor counter: 22252*; ugtP null kill: -6; Mtb hypoxia rep: 5; RN4220 kill: -2.7; Mtb hypoxia rep growth: 16

What do the screens show for `CC(=NNC(=O)C1CCCN1C(=O)c1ccc([N+](=O)[O-])cc1)c1ccc(Br)cc1` (configuration not stated)?
ugtP null kill: 5; Mtb hypoxia rep: 2; RN4220 kill: 2.4; Mtb hypoxia rep growth: 6

What do the screens show for `CC(NC(=O)c1ccccc1Br)c1ccc2c(c1)CCCC2` (configuration not stated)?
BJeLR lethal: -1; Autofluor counter: 12383; ugtP null kill: -1; Mtb hypoxia rep: 8; RN4220 kill: 16; Mtb hypoxia rep growth: 3

Not a hit list (roughly 4% active in at least one column).
